MARV entry inh – blocks Marburg virus binding to or entry into cells. Marburg virus pseudotyped entry inhibition, cell reporter; control for the full effect not named in the record; about a third of the inactives were read at about 46 µM. Potency, µM (doses to about 37.8 µM), for inactives: top-dose activity change, negative = inhibition, actives largely listed as inhibitors. actives 1.8% (n = 300,000). AID 540276; active = well fitted inhibition curve with a large enough effect; inconclusive = small, poorly fitted or top-dose-only effect, or effect the other way; inactive = flat fitted curve, though single readings scatter; tested in HEK293 cells; about a fifth of its hits are not listed in these tables; also: % is scaled to controls: 0 for no effect and ±100 for the full control effect; luciferase read-out
LASV entry inh – blocks Lassa virus binding to or entry into cells; Lassa virus pseudotype entry inhibition, cell reporter; control for the full effect not named in the record; Potency, µM (top dose mostly 37.9 µM), for inactives: at the top dose activity change, negative = inhibition, usual class: inhibitors; actives 1.2% (n = 300,000); AID 540256; active means well fitted inhibition curve with a large enough effect; inconclusive means small, poorly fitted or top-dose-only effect, or effect the other way; inactive means flat fitted curve, though single readings scatter; tested in HEK293 cells; also: % is scaled to controls: 0 for no effect and ±100 for the full control effect; nearly all actives have a fitted effect of over 50% in size; luciferase read-out
RE007 growth inh – less growth of the S. pombe RE007 Vpr strain; S. pombe RE007 Vpr strain, BacTiter-Glo ATP luminescence, 24 h; control for the full effect not named in the record; Potency, µM (titrated, usually from 92.2 µM), for inactives: at the highest dose activity change, negative = less growth; actives 0.21% (n = 360,000); active = well fitted falling curve with a large enough effect; inconclusive = small, poorly fitted or top-dose-only effect; inactive = no such curve, though single readings can be large or run the other way;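 also: % is scaled to controls: 0 for no effect and ±100 for the full control effect; nearly all actives have a fitted effect of over 50% in size; the assay follows cell death caused by Vpr and the record does not say whether a fall means rescue or toxicity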
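Fission yeast RE007 carrying one integrated HIV-1 vpr copy, seeded at OD 0.01 in PMG+AL medium with 23 nL pinned compound. Grown 24 h at 30 degrees; viability read by BacTiter-Glo luminescence after 5 min.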
SARS PLP yeast – inhibitors of SARS-CoV papain-like protease in yeast. AID 485353. actives 0.19% (n = 330,000). Potency, µM (highest dose often 32.9 µM), for the others: at the top dose activity, positive = growth rescue. S. cerevisiae expressing SARS-CoV PLpro, growth rescue; control for the full effect not named in the record; also: 0% is about no effect; nearly all actives have a fitted effect of over 55% in size; growth read by luminescence after 48 h
Cruzain inh Det – inhibitors of Trypanosoma cruzi cruzain with detergent. actives 0.43% (n = 200,000). P25779. AID 1478. purified cruzain, Z-FR-AMC fluorescence, 0.01% Triton. Potency, µM, for the others: max response, negative = inhibition, most hits filed as inhibitors; active = well fitted curve in the direction sought with a large enough effect; inconclusive = small, poorly fitted or top-dose-only effect, or another doubt; inactive = no such curve, though single readings can be large; an effect the other way counts as inactive or inconclusive;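 also: plate controls were neutral wells for no effect and buffer without enzyme for full effect; nearly all actives have a fitted effect of over 40% in size; top concentration of the series not given in the record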
Target sequence (P25779 123-467 limits assumed): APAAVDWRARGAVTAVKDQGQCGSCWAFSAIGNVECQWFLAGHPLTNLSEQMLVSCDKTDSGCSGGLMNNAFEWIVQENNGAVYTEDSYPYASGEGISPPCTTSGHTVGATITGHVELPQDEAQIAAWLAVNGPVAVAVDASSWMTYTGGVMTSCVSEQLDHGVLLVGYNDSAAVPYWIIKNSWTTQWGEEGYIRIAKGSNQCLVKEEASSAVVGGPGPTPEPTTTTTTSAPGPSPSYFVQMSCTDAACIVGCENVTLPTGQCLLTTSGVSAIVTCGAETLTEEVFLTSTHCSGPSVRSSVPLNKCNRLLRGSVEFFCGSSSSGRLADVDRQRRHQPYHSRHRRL
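Sodium acetate buffer (100 mM, pH 5.5) containing 5 mM DTT and 0.01% Triton X-100 hosted 1.5 nM cruzain and test compound for 15 min at room temperature. Cleavage of 2 uM Z-FR-AMC was then tracked by fluorescence.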
Cruzain noTriton – blocks cruzain activity in detergent-free assay; P25779; purified cruzain, Z-FR-AMC fluorescence, no detergent; Potency, µM, without a hit: max response, negative = inhibition, actives largely listed as inhibitors; actives 2.3% (n = 200,000); AID 1476; active = well fitted curve in the direction sought with a large enough effect; inconclusive = small, poorly fitted or top-dose-only effect, or another doubt; inactive = no such curve, though single readings can be large; an effect the other way counts as inactive or inconclusive;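 also: plate controls were enzyme without inhibitor for no effect and buffer without enzyme for full effect; nearly all actives have a fitted effect of over 40% in size; top concentration of the series not given in the record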
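Purified cruzain at 1.5 nM, pre-incubated 15 min with compound at room temperature in 100 mM sodium acetate pH 5.5, 5 mM DTT, 0.00005% Triton X-100. Reaction started with 2 uM Z-FR-AMC; AMC fluorescence increase over 60 s gives rate.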
NS1 inh – inhibitors of influenza NS1 protein function; S. cerevisiae slowed by influenza A NS1, growth recovery by OD600; Potency, µM (titrated, usually from 46.1 µM), inactives show top-dose activity, positive = more growth; actives 0.4% (n = 270,000); AID 2326; also: actives are rising curves; nearly all actives have a fitted effect of over 50% in size
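Read-out: OD600 growth recovery of NS1-expressing budding yeast. Cells grown overnight at 30C in -URA glucose medium, washed, resuspended and diluted 1:100 in 2% galactose assay medium, pH 6.0. Same strain lacking NS1 served as positive control.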
2A StopGo – lowers the luciferase signal of an FMDV 2A StopGo reporter; Potency, µM (series often up to 57.9 µM), for the others: top-dose signal change, negative = less light; human cells with a luciferase reporter of 2A StopGo recoding; control for the full effect not named in the record; AID 1159524; actives 1.2% (n = 410,000); active = well fitted falling curve with a large enough effect; inconclusive = small, poorly fitted or top-dose-only effect; inactive = no such curve, though single readings can be large or run the other way; tested in HEK293T cells; also: % is scaled to controls: 0 for no effect and ±100 for the full control effect; nearly all actives have a fitted effect of over 45% in size; luciferase light after 4 h
Numbers without * were called inactive; ? = inconclusive; / = no result given; & = joins results of further samples; [ ] = remark or other dose. Unless noted, calls follow the shape of the dose curve; as a rule, active means well fitted rising curve with a large enough effect; inconclusive means small, poorly fitted or top-dose-only effect; inactive means no such curve, though single readings can be large or run the other way. Potency is read from the fitted curve at half-maximal effect.

Structure	MARV entry inh	LASV entry inh	RE007 growth inh	SARS PLP yeast	Cruzain inh Det	Cruzain noTriton	NS1 inh	2A StopGo
CCOc1ccc2oc(C(=O)OC(C(=O)NC(N)=O)C(C)C)c(C)c2c1 (stereo not given)	5%[46.1 µM]	?	-4%	1%	/	/	-4%	-19%
CCOC(=O)NC1(NCc2ccccc2)Oc2ccccc2O1	?	?	-21%	1%	8.2%	4%	-3%	-2%
CCN(CC)C(=O)Cn1c(=O)n(-c2ccc(C)c(C)c2)c(=O)c2c3c(sc21)CCCCC3	25%[46.1 µM]	12%[46.1 µM]	/	/	-1.5%	1%	/	1%
CCCCn1c(N)c(N(CC(C)C)C(=O)C2CC(=O)N(c3ccc(C)cc3)C2)c(=O)[nH]c1=O (stereo not given)	-10%[46.1 µM]	1%	30%	9%	/	/	/	-17%
O=C(c1ccc2c(c1)N(Cc1cccc(Cl)c1)C(=O)c1ccccc1S2(=O)=O)N1CCCCC1	/	?	/	/	-3.7%	2%	/	-5%
CC(Sc1nnc(Cc2cccs2)n1C1CC1)C(=O)NC1CCS(=O)(=O)C1 (stereo not given)	-7%	?	9%	-3%	/	/	/	17%
COC(=O)c1ccc(S(N)(=O)=O)o1	?	-11%	3%	7%	0.6%	-2%	0%	-23%
COc1ccc(N(CC(=O)N/N=C/c2ccccc2F)S(=O)(=O)c2ccccc2)cc1	?	?	17%	2%	/	/	7%	1%
O=C(O)C1CCCCC1C(=O)Nc1ccc(Cl)cc1Cl (stereo not given)	-6%	-2%	-14%	0%	7.1%	-5%	-5%	-2%
O=C(COC(=O)c1ccncc1)Nc1ccc2c(c1)OCO2	?	26%	7%	-11%	/	/	/	3%
CN1CCOc2ccc(S(=O)(=O)NCCc3ccc(Cl)cc3)cc21	/	/	1%	-7%	/	/	-18%	51%[activator]
Nc1c(Cl)cc(Cl)cc1C(=O)OCC(=O)N1CCCC1	13%	21%	?	-7%	-7.2%	25%	-90%	-4%
CCCNC(=O)Cn1cnc2sc(C(=O)NCCN(CC)CC)c(C)c2c1=O	1%[46.1 µM]	-8%	7%	3%	-2.7%	0%	1%	9%
Cc1ccc(N2CC(NC(=O)C3CCCC3)CC2=O)cc1C (stereo not given)	/	-8%[46.1 µM]	/	/	1.2%	9%	/	-10%
COc1ccc(CC(=O)Nc2nc3c(s2)CC(C)CC3)cc1 (stereo not given)	?	16%[46.1 µM]	/	/	-15%	-11%	/	20%
O=[N+]([O-])c1cc(S(=O)(=O)N2CCCC2)ccc1NCCc1ccccc1	8%	19%	1%	18%	-4.1%	6%	-2%	-23%
CCc1ccc(OC(=O)/C=C/c2ccco2)cc1	/	/	5%	-1%	/	/	6%	32%[activator]
CCOC(=O)c1cc(-c2cc3ccccc3o2)nc2c1c(=O)[nH]c(=O)n2CCOC	4%	22%	-10%	-1%	-7.9%	?	0%	-8%
CCOc1ccc(NC(=O)CN(C)C(=O)c2cc(-c3ccc(OC)cc3)nc3ccccc23)cc1OCC	-20%	-23%	10%	-1%	/	/	/	16%
Cc1cc(OC(=O)c2ccc(C(F)(F)F)cc2)c([N+](=O)[O-])c(=O)[nH]1	/	/	-1%	1%	/	/	-45%	-10%
CC1CCCC(C)N1c1ccc(S(=O)(=O)N2CCOCC2)cc1Cl (stereo not given)	?	?	-5%	-22%	/	/	-11%	-17%
CCN(CC(=O)Nc1c(C(=O)OC)[nH]c2ccc(C)cc12)c1ccc2c(c1)OCO2	-18%	-20%	5%	20%	-3.3%	5%	4%	-25%
COc1ccc(C)cc1NC(=O)c1cc2ccccc2o1	15%	2%	?	-4%	2.3%	-1%	?	20%
Cc1sc2ncn(CC(=O)N3CCN(c4ccccc4F)CC3)c(=O)c2c1S(=O)(=O)N1CCOCC1	4%[46.1 µM]	2%	-15%	-3%	/	/	-7%	-3%
COc1c(C)cc(C(=O)C2CCCN(Cc3ccccn3)C2)cc1C (stereo not given)	?	-26%[46.1 µM]	-17%	0%	/	/	1%	-22%

Structure	MARV entry inh	LASV entry inh	RE007 growth inh	SARS PLP yeast	Cruzain inh Det	Cruzain noTriton	NS1 inh	2A StopGo
CC1=CC(C)(C)N2C(=O)C3(SCC(=O)N3c3ccc(O)cc3)c3cc(C)cc1c32 (stereo not given)	15%	-17%	0%[3.69 µM]	-3%	-2.1%	?	-37%	-24%
Cc1nn(CC(O)Cn2cnc3c2c(=O)n(C)c(=O)n3C)c(C)c1Br (stereo not given)	-1%&1%	10%	6%	2%	6.2%	-2%	1%	-22%
COc1cc(OC)cc(C(=O)Nc2ncc3c(n2)CC(C)CC3=O)c1 (stereo not given)	-19%[46.1 µM]	-10%	-3%	-1%	7.2%	-5%	14%	19%
CCOC(=O)c1cc(-c2ccc(OC)cc2)nn1-c1ccccc1C(=O)O	0%[46.1 µM]	-3%[46.1 µM]	1%	0%	/	/	4%	-14%
O=C(Cc1c[nH]c2ccccc12)NCc1ccco1	5%[46.1 µM]	1%	6%	-1%	/	/	/	11%
Cn1c(=O)[nH]c(=O)c2c1nc(NCCCn1ccnc1)n2CCOc1ccccc1	17%	-3%	-1%	0%	3.4%	0%	-4%	?
CCOC(=O)Cn1c(=O)n(C2CCCCC2)c2nc(-c3c(F)cccc3Cl)nc(C(N)=O)c21	/	2%[46.1 µM]	/	/	-11%	19%	/	?
COc1cccc(C(=O)Oc2c(CN3CCOCC3)cc(Cl)c3cccnc23)c1	8.2µM*	?	-24%	?	-0.8%	3%	-11%	?
C/C(=N\NC(=O)c1c[nH]c2ccccc12)c1ccccn1	?	2µM*	1%	-2%	/	/	/	8%
Cc1csc(NC(=O)c2ccc(S(=O)(=O)N(C)c3ccccc3)cc2)n1	?	?	-2%	0%	-4.8%	?	15%	?
CCN1CCN(C(=S)c2ccc(OC)cc2)CC1	13%[46.1 µM]	-6%	10%	12%	/	/	-2%	3%
CCOC(=O)c1cc(-c2csc(-c3ccc(C(F)(F)F)cc3)n2)on1	?	-4%	9%	0%	/	/	0%	3%
COC(=O)CSc1nnc(CNC(=O)c2ccc(S(=O)(=O)N(C)C)cc2)n1C	3%[46.1 µM]	23%[46.1 µM]	5%	1%	/	/	/	-4%
COc1ccc(C(=O)COC(=O)C2CCN(S(=O)(=O)c3cccc4cccnc34)CC2)cc1	-6%	3%	11%	10%	-3.9%	?	14%	-16%
COc1ccc(-c2cn3c4c(sc3n2)CCCC4)cc1	4%	7%	4%[3.69 µM]	-30%	-10.0%	-3%	-131%	-14%
C[C@H]1CC[C@H]2C(=O)N3[C@H](c4cccc(N5CCCC5=O)c4)[C@@H](C)CC[C@H]3C(=O)N2[C@@H]1c1cccc(N2CCCC2=O)c1	?	1%	/	-2%	-1.0%	?	-19%	/
S=c1[nH]nc(-c2cc(-c3ccccc3)n[nH]2)n1/N=C/c1c(Cl)cccc1Cl	?	-18%	2%	-2%	/	/	7%	?
O=C(CN1CCOCC1)n1c2ccccc2c2ccccc21	17%	13%	-28%	0%	-1.1%	-1%	-16%	?
COc1ccc2c(c1)OC(c1ccccc1)(C(F)(F)F)NC2=O (stereo not given)	-4%	5%	-7%	-5%	-1.0%	-9%	-6%	-2%
Cc1cc(S(=O)(=O)Nc2ccc(C(=O)NCC(c3ccco3)N3CCCCC3)cc2)ccc1F (stereo not given)	-7%	9%	17%	1%	/	/	/	-21%
c1csc(-c2nn3c(Cn4cnc5ccccc54)nnc3s2)c1	-15%	4%	-8%	-6%	9.4%	-9%	-95%	/
COC(=O)c1sc(NC(=O)c2c(-c3ccccc3)noc2C)nc1C	13%[46.1 µM]	-11%[46.1 µM]	9%	-2%	/	/	5%	-18%
O=C(NNC(=O)c1cccc(Br)c1)Nc1ccc(Cl)cc1	?	0%	5%	-1%	/	/	7%	19%
CCCCNC(=O)NS(=O)(=O)c1cnccc1Sc1ccc(Cl)cc1	-3%	11%	3%	3%	1.1%	-1%	-1%	-1%
Nc1cc(Oc2cccnc2)cc([N+](=O)[O-])c1	-10%[46.1 µM]	5%	54%	-1%	/	/	/	-2%

Structure	MARV entry inh	LASV entry inh	RE007 growth inh	SARS PLP yeast	Cruzain inh Det	Cruzain noTriton	NS1 inh	2A StopGo
C[N+](C)(C)CCC(=O)N1C/C(=C/c2ccccc2)C(=O)/C(=C\c2ccccc2)C1	?	?	5%	/	/	/	/	?
CN(C)C(=O)c1cn(-c2ccccc2)c(=O)c2ccccc12	10%	-12%	24%	5%	1.9%	5%	0%	7%
Cc1cccc(N2C(=O)N3[C@H](c4ccc(Br)cc4)[C@@H]4C(=O)N(C(C)(C)C)C(=O)[C@@H]4[C@]3(Cc3ccc(Cl)cc3)C2=O)c1	/	/	12%	-10%	/	/	15%	-21%
Cn1c(=O)c2c(ncn2CC(=O)OCC(=O)Nc2sccc2C(N)=O)n(C)c1=O	4%	?	8%	3%	/	/	/	-11%
Cc1ccc(N(CC(N)=O)C2SC(=O)N(Cc3cccc(C(=O)O)c3)C2=O)cc1 (stereo not given)	-2%	0%	17%	13%	0.5%	5%	15%	-6%
O=C(COC(=O)c1ccccc1Nc1ccccc1)NCc1ccccc1Cl	3%	4%	6%	-11%	-4.2%	21%	-8%	-10%
Cc1cc(C)n2cc(CSc3ccccn3)nc2n1	11%[46.1 µM]	-4%[46.1 µM]	-18%	2%	/	/	/	6%
CC(=O)N1c2ccc(S(=O)(=O)NCC3CCC(C(=O)N(C)Cc4ccccc4)CC3)cc2CC1C (stereo not given)	?	?	-4%	1%	/	/	-5%	-23%
CCOC(=O)C1CCN(c2c(N(C)Cc3ccco3)c(=O)c2=O)CC1	14%	6%	-2%	14%	0.9%	-5%	3%	-15%

Bioassay records: PubChem, National Center for Advancing Translational Sciences (NCATS)
